Screening data deposited in PubChem by National Center for Advancing Translational Sciences (NCATS).
Menin-MLL FL inh: qHTS Assay for Inhibitors Targeting the Menin-MLL Interaction in MLL Related Leukemias: Competition With Fluorescein Labeled MLL-derived Peptide. Fluorescence polarization, fluorescein-MLL peptide displacement from menin. FP activity change, % at 61.4 µM. 290,000 tested, under 10 active; inconclusive = falling polarisation curve, or a change in total fluorescence; inactive = total fluorescence flat and polarisation flat or rising; no compound was filed as active; the % refers to the polarisation; negative = inhibition;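 also: % of control where 0% means no effect; inhibitors lower the polarisation; unlabelled MLL peptide was the positive control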
Sfp PPTase inh: qHTS Assay for Inhibitors of Bacillus subtilis Sfp phosphopantetheinyl transferase (PPTase). 4'-phosphopantetheinyl transferase ffp (Bacillus subtilis), Q9F4F7. Biochemical Sfp PPTase activity, qHTS. Potency, µM, for the others: max response, negative = inhibition, hits mostly inhibitors. 310,000 tested, 3.5% active. AID 1490, 2009; active = well fitted inhibition curve with a large enough effect; inconclusive = small, poorly fitted or top-dose-only effect, or another doubt; inactive = no such curve, though single readings can be large or run the other way;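 also: the enzyme is Sfp with the accession as filed and its product quenches rhodamine fluorescence; potency is read from the fitted curve at half-maximal effect; 0% = enzyme reaction without inhibitor and -100% = no enzyme wells; top concentration of the series not given in the record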
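Fluorescence-quenching assay: 15 nM Sfp-PPTase preincubated 15 min at room temperature with compound, then 5 uM rhodamine-CoA and 12.5 uM BHQ-2-labelled YbbR peptide added. Fluorescence (ex 525/em 598 nm) read at start and after 30 min; difference gives rate.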
* = called active by the depositor; ? = inconclusive; & = joins results of further samples; [ ] = dose if it differs, or a comment. An excerpt, so the mix of outcomes need not match the whole.

Under each structure: Menin-MLL FL inh	Sfp PPTase inh
1) CCCn1c(-c2ccc(F)cc2)nc2c(NCCCN3CCOCC3)nc(C)nc21
    -7.3	-19%
2) CN(C)C(=O)COC(=O)Cc1ccc(OC(=O)c2ccc(N=C(N)N)cc2)cc1
    -1.3	11%
3) CCN1C(=O)[C@H]2[C@H]3[C@H](O)[C@H](O)C/C(=N/NC(=O)OCc4ccc(OC)cc4)[C@@H]3CC[C@@H]2C1=O
    -1.4[11.7 µM]	7%
4) NCC(O)CC(=O)O (stereo unspecified)
    3.8	-14%
5) CCCn1c(C)nc2c(NC3CCN(Cc4ccccc4)CC3)nc(C)nc21
    -6.2	25%
6) CCCCC(CC)COC(=O)/C=C/c1ccc(OC)cc1 (stereo unspecified)
    0.7	15%
7) COc1ccc(-c2coc3cc(O)ccc3c2=O)c(OC)c1
    0.9	13%
8) CC(C)CO/N=C1/C[C@@H](O)[C@@H](O)[C@@H]2[C@H]3C(=O)N(c4ccc(F)cc4F)C(=O)[C@@H]3CC[C@@H]12
    -5.3[11.7 µM]	13%
9) O=C1C[C@@H](c2ccc(O)c(O)c2)Oc2cc(O[C@H]3O[C@@H](CO)[C@H](O)[C@@H](O)[C@@H]3O)cc(O)c21
    8.9	-26%
10) C=CCc1cc(OC)c(O)c(C(=O)NCCO)c1
    3.0	-17%

Retrieved by compound from the list above:
Under each structure: Menin-MLL FL inh	Sfp PPTase inh
10) C=CCc1cc(OC)c(O)c(C(=O)NCCO)c1
    3.0	-17%
4) NCC(O)CC(=O)O (stereo unspecified)
    3.8	-14%
7) COc1ccc(-c2coc3cc(O)ccc3c2=O)c(OC)c1
    0.9	13%
9) O=C1C[C@@H](c2ccc(O)c(O)c2)Oc2cc(O[C@H]3O[C@@H](CO)[C@H](O)[C@@H](O)[C@@H]3O)cc(O)c21
    8.9	-26%
6) CCCCC(CC)COC(=O)/C=C/c1ccc(OC)cc1 (stereo unspecified)
    0.7	15%

The list goes on:
Under each structure: Menin-MLL FL inh	Sfp PPTase inh
11) COc1cccc([C@@H]2Oc3ccc(Br)cc3C[C@H]2OC(=O)NS(=O)(=O)c2ccc(F)cc2)c1
    -0.3	6%
12) COC1CCC(C(=O)c2ccc3nc4c(cc3c2)CCCO4)CC1 (stereo unspecified)
    -3.3	7%
13) C=CCOC(=O)N[C@H](c1ccccc1)C(C(C)=O)C(C)=O
    2.3	9%
14) O=C(N/N=C1/C[C@@H](O)[C@@H](O)[C@@H]2[C@@H]3C(=O)N(Cc4ccccc4)C(=O)[C@H]3CC[C@@H]12)OCc1ccccc1
    -3.5[11.7 µM]	6%
15) CS(=O)(=O)CCNCc1nc(-c2ccc3ncnc(Nc4ccc(OCc5cccc(F)c5)c(Cl)c4)c3c2)cs1
    -0.4&0.5	?
16) Oc1ccc2c(c1)OCC1c3cc4c(cc3OC21)OCO4 (stereo unspecified)
    1.1	4%
17) O=C(O)c1ccccc1-n1ncc2c1/C(=C/c1ccc(Cl)cc1)CC2
    11	8%
18) COc1ccc(OC2C=CC(C#Cc3ccc(C(C)(C)C)cc3)OC2CO)cc1 (stereo unspecified)
    -4.3[11.7 µM]	15%
19) CCOC(=O)CCN1C(=O)[C@H]2[C@H]3[C@H](O)[C@H](O)C/C(=N/OCc4ccccc4)[C@@H]3CC[C@@H]2C1=O
    -1.5[11.7 µM]	14%
20) COC(=O)[C@H](COC(C)(C)C)NC(=O)O[C@@H]1C(=O)c2ccc(OC)cc2O[C@H]1c1cccc(C(F)(F)F)c1
    -1.5	14%

Continuation.
Under each structure: Menin-MLL FL inh	Sfp PPTase inh
21) Cc1cc(C)cc(/C=C/C2OCC(O)C2Oc2ccc(C3CCCC3)cc2)c1 (stereo unspecified)
    -1.3&-8.5[11.7 µM]	7%&10%
22) CC(=O)OC[C@@H]1O[C@@H](O/N=C2/C[C@@H](O)[C@@H](O)[C@@H]3[C@@H]4C(=O)N([C@@H](C)c5ccccc5)C(=O)[C@H]4CC[C@H]23)[C@H](OC(C)=O)[C@H](OC(C)=O)[C@@H]1OC(C)=O
    0.2[11.7 µM]	2%
23) C[C@@H](c1ccccc1)N1C(=O)[C@H]2[C@H]3[C@H](O)[C@H](O)C/C(=N/OC[C@@H](O)COCc4ccco4)[C@@H]3CC[C@@H]2C1=O
    -3.1[11.7 µM]	19%
24) O=C(O)c1c(Sc2ccccc2)c2cc(Cl)ccc2n1Cc1ccc(Cl)cc1
    -0.3	13%
25) O=[N+]([O-])c1cccc(C2=N[C@@H](Cc3ccccc3)CO2)c1
    -1.2[94.6 µM]	-20%
26) COc1ccc(/C=C/C(=O)c2c(OC)cc(O)cc2OC)cc1
    4.0	-25%
27) CO[C@H]1COC(=O)CCC[C@H](C)[C@@H](OC)COC(=O)C/C=C\[C@@H]1C
    -0.8[11.7 µM]	20%
28) NCC(=O)N[C@@H](CCCN=C(N)N)C(=O)NCC(=O)N[C@@H](CC(=O)O)C(=O)N[C@@H](CO)C(=O)O
    3.1	21%
29) CC[C@H](C)[C@H](NC(=O)[C@@H](NC(=O)CNC(=O)[C@@H](N)CC(C)C)[C@@H](C)O)C(=O)N1CCC[C@H]1C(=O)NCC(=O)O
    0.4	1%
30) N#Cc1ccc(CS(=O)(=O)c2ccccc2)cc1
    -0.4	13%

Remaining list, next part.
Under each structure: Menin-MLL FL inh	Sfp PPTase inh
31) CCCCCCCC1=Cc2ccc(F)cc2C(C(C(C)=O)C(=O)OC)N1C(=O)OC (stereo unspecified)
    4.2	6%&-15%
32) CC(=O)Oc1cccc(O)c1
    -11	-5%
33) CCc1cc(C(C)=O)c(O)cc1OCCCCCC(C)(C)c1nn[nH]n1
    9.6	11%
34) CCCCCC(=O)CC[C@@H]1[C@@H](C/C=C\CCCC(=O)O)[C@@H](O)C[C@H]1O
    -5.5	15%
35) O=C1C=CC2(OCCCO2)C(Br)=C1
    -6.1[11.7 µM]	13%
36) OC[C@H]1O[C@@H]2O[C@H]3[C@H](O)[C@@H](O)[C@@H](O[C@H]4[C@H](O)[C@@H](O)[C@@H](O[C@H]5[C@H](O)[C@@H](O)[C@@H](O[C@H]6[C@H](O)[C@@H](O)[C@@H](O[C@H]7[C@H](O)[C@@H](O)[C@@H](O[C@H]8[C@H](O)[C@@H](O)[C@@H](O[C@H]1[C@H](O)[C@H]2O)O[C@@H]8CO)O[C@@H]7CO)O[C@@H]6CO)O[C@@H]5CO)O[C@@H]4CO)O[C@@H]3CO
    -1.1	47%[activator]
37) C=CC[C@@H]1/C=C(\C)C[C@H](C)C[C@H](OC)[C@H]2O[C@@](O)(C(=O)C(=O)N3CCCC[C@H]3C(=O)O[C@H](/C(C)=C/[C@@H]3CC[C@@H](O)[C@H](OC)C3)[C@H](C)[C@@H](O)CC1=O)[C@H](C)C[C@@H]2OC
    -2.4&-3.4&-0.3	11%&4%&4%
38) COc1cccc([C@@H]2Oc3ccc(OC)cc3C(=O)[C@H]2OC(=O)NCc2ccco2)c1
    1.4	-2%
39) Cc1ccc(S(=O)(=O)OCCc2ccccc2)cc1
    1.4	-10%
40) Cn1c(N)c(C(=O)COC(=O)c2cc(C(F)(F)F)nc3c(C(F)(F)F)cccc23)c(=O)n(C)c1=O
    -4.7	14%

(continued)
Under each structure: Menin-MLL FL inh	Sfp PPTase inh
41) CC(=O)Nc1ccc(S(=O)(=O)N2CCc3nc(COc4ccccc4)c4c(c3C2)CO[C@@H](C)C4)cc1
    0.8[11.7 µM]	23%
42) CCN1C(=O)[C@H]2[C@H]3[C@H](O)[C@H](O)C/C(=N/OC[C@@H](C)[C@H](OCc4ccccc4)C(C)C)[C@@H]3CC[C@@H]2C1=O
    3.5[11.7 µM]	13%
43) O=C1CCCC=C1[C@@H](O)C1CCCCC1
    2.9[11.7 µM]	19%
44) Nc1ccc(O)c(C(=O)O)c1
    0.9	45µM*
45) COc1cc2c(cc1O)-c1ccccc1CN(C)C2
    2.6	-21%
46) Cc1cc2oc(=O)cc(-c3ccccc3)c2c(C)c1-c1ccoc1
    -4.0[94.6 µM]	-30%
47) C=CC1=C2C=C(C3CC3)N(CC(C)C)C=C2C(=O)C(C)(OC(=O)c2ccco2)C1=O (stereo unspecified)
    -7.3[11.7 µM]	5%
48) C=CC[C@@H]1C=C[C@@H](O/N=C\C[C@@H]2C=C[C@H](OC(C)=O)[C@H](COC(C)=O)O2)[C@@H](CO)O1
    5.4[11.7 µM]	-20%
49) Nc1nc2c(ncn2[C@@H]2O[C@H](CO)[C@@H](O)[C@H]2O)c(=O)[nH]1
    -3.7	3%
50) CN(C)c1ccc(/C=C2\C(=O)Nc3ccccc32)c2ccccc12
    2.4	-22%

Further entries
Under each structure: Menin-MLL FL inh	Sfp PPTase inh
51) N#CC(=C=[N-])c1nc2ccccc2nc1-[n+]1cccc(NC(=O)c2ccc(F)cc2)c1
    27	-20%
52) CC[C@@H](C)[C@@H](O)[C@H](C)C(=O)[C@H](C)/C=C(\C)C[C@H](C)[C@@H]1OC(=O)[C@H]1CC
    4.9	-11%
53) CC(C)=CCC/C(C)=C/CC/C(C)=C/CC/C(C)=C/CO
    -0.6	15%&6%
54) Nc1nc(-c2nn(Cc3ccccc3F)c3ncccc23)ncc1C1CC1
    -5.4	15%
55) C[C@]12CCC(=O)C=C1CC[C@@H]1[C@@H]2[C@@H](O)C[C@@]2(C)[C@H]1CC[C@]2(O)C(=O)COP(=O)(O)O
    1.5	19%
56) CCCCC/C=C\C/C=C\C/C=C\C/C=C\CCCC(=O)O[C@@H](CO)COC(=O)CCCCCCCCCCCCCCCCC
    -2.6	17%&13%
57) CC(C)[C@H](CO)Nc1nc(Nc2ccc(C(=O)O)c(Cl)c2)c2ncn(C(C)C)c2n1
    13	-7%
58) NC(C(=O)O)c1ccc(O)cc1 (stereo unspecified)
    -2.3	4%
59) CC(=O)Oc1ccc(/C=C/C(=O)CC2OC(Oc3cc(OC(C)=O)c4c(c3)O[C@@H](c3ccc(OC(C)=O)cc3)CC4=O)C(OC(C)=O)C(OC(C)=O)C2OC(C)=O)cc1 (stereo partly specified)
    1.1	-10%
60) C#CCCCO/N=C1/C[C@@H](O)[C@@H](O)[C@@H]2[C@@H]3C(=O)N(CCC(=O)OCC)C(=O)[C@H]3CC[C@@H]12
    0.3[11.7 µM]	7%

Carrying on.
Under each structure: Menin-MLL FL inh	Sfp PPTase inh
61) COc1ccc2cccc(N3CCN(CCNC(=O)c4ccc(F)cc4)CC3)c2c1
    0.2	-12%
62) CNc1ccc(-c2nc3ccccc3s2)cc1
    -2.1	?
63) CC(C)OC(=O)C(C(=O)OC(C)C)=C1SC=CS1
    -0.2	16%
64) CCCCC[C@H](O)/C=C/C=C\CCCCCCCCCC(=O)O
    -0.7	-11%
65) CC[C@H](C)[C@H](NC(=O)[C@H](Cc1ccc(O)cc1)NC(=O)[C@@H]1CCCN1C(=O)[C@H](CCCN=C(N)N)NC(=O)[C@H](CCCN=C(N)N)NC(=O)[C@@H]1CCCN1C(=O)[C@H](CCCCN)NC(=O)[C@H](CC(N)=O)NC(=O)[C@H](CCC(N)=O)NC(=O)[C@H](Cc1ccc(O)cc1)NC(=O)[C@H](CC(C)C)NC(=O)[C@@H]1CCC(=O)N1)C(=O)N[C@@H](CC(C)C)C(=O)O
    4.5	15%
66) C=CC[C@](C)(O)c1ccccc1
    4.1	7%
67) C[C@@H]1C[C@H](OC(=O)c2ccccc2O)CC(C)(C)C1
    2.7[24.8 µM]	9%
68) COC(=O)[C@@]1(Cc2ccccc2)[C@H]2c3cc(C(=O)N4CCCC4)n(Cc4ccccn4)c3C[C@H]2CN1C(=O)c1ccccc1
    -2.2	-12%
69) CC1(C)S[C@H]2C(NC(=O)[C@@H](N)c3ccc(O)cc3)C(=O)N2[C@@H]1C(=O)O (stereo partly specified)
    3.0	-16%
70) CC[C@H](C)[C@H](NC(=O)[C@H](CCC(=O)O)NC(=O)[C@H](CO)NC(=O)[C@@H](NC(=O)[C@@H](N)CO)C(C)C)C(=O)N[C@@H](CCC(N)=O)C(=O)N[C@@H](CC(C)C)C(=O)N[C@@H](CCSC)C(=O)N[C@@H](Cc1cnc[nH]1)C(=O)N[C@@H](CC(N)=O)C(=O)N[C@@H](CC(C)C)C(=O)NCC(=O)N[C@@H](CCCCN)C(=O)N[C@@H](Cc1cnc[nH]1)C(=O)N[C@@H](CC(C)C)C(=O)N[C@@H](CC(N)=O)C(=O)N[C@@H](CO)C(=O)N[C@@H](CCSC)C(=O)N[C@@H](CCC(=O)O)C(=O)N[C@@H](CCCNC(=N)N)C(=O)N[C@H](C(=O)N[C@@H](CCC(=O)O)C(=O)N[C@@H](Cc1c[nH]c2ccccc12)C(=O)N[C@@H](CC(C)C)C(=O)N[C@@H](CCCNC(=N)N)C(=O)N[C@@H](CCCCN)C(=O)N[C@@H](CCCCN)C(=O)N[C@@H](CC(C)C)C(=O)N[C@@H](CCC(N)=O)C(=O)N[C@@H](CC(=O)O)C(=O)N[C@H](C(=O)N[C@@H](Cc1cnc[nH]1)C(=O)N[C@@H](CC(N)=O)C(=O)N[C@@H](Cc1ccccc1)C(=O)N[C@H](C(=O)N[C@@H](C)C(=O)N[C@@H](CC(C)C)C(=O)NCC(=O)O)C(C)C)C(C)C)C(C)C
    0.6	?
71) N#CCCCSc1nnnn1-c1cc(C(F)(F)F)cc(C(F)(F)F)c1
    -1.7	-2%
72) C[C@@H](C(=O)O)c1ccc(N2Cc3ccccc3C2=O)cc1
    ?	21%
